# From PubChem
# HIV TAR-Tat: HIV-1 TAR-Tat binding disruption; HIV-1 TAR RNA, Tat peptide displacement FRET; stronger effect = higher value; 100,000 compounds, 0.6% hits; z-score (test concentration not listed);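 note: score is relative to mean and SD of negative controls; some compounds called inactive have numbers as strong as hits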
# CDC25B-CDK2 inh: human CDC25B-CDK2/CyclinA binding inhibition; HTRF CDC25B-CDK2/CyclinA binding, anti-His/anti-Flag; stronger effect = higher value; 94,000 compounds, 0.72% hits; P30305+P24941; z-score (test concentration not listed);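 note: score is relative to mean and SD of negative controls; strong numbers were not always called active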
# Starred values were filed as active, the others as inactive; · = no result given.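 Rule for the calls: active = z-score from 3 up in half or more of its runs; inactive = the rest.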 The order is random; about 0.89% have a hit in one of these screens.
no.	structure	CDC25B-CDK2 inh	HIV TAR-Tat
1	O=C(NCCCN1CCCC1)c1ccc2c(c1)nc1n2CCOC1	·	-0.07
2	O=S1(=O)C[C@H](NCc2ccccc2)[C@@H](S(=O)(=O)c2ccc(F)cc2)C1	-0.65	0.13
3	Cc1nnsc1-c1onc(C)c1C(N)=O	-1.9	·
4	O=C(CN1C(=O)CCc2cc(Br)ccc21)Nc1ccc2c(c1)OCCO2	·	-0.41
5	NC1(C(=O)O)CCCC1	·	-0.04
6	O=C(CN1CCSc2ccccc21)NC1CC1	·	0.94
7	O=C(N/N=C/c1ccc(Cl)cc1)c1cc(=O)nc2sccn12	-1	·
8	COc1ccc(C2C(C(=O)OC3CCCC3)=C(C)NC3=C2C(=O)CC(C)(C)C3)cc1OC (stereo unspecified)	-1.9	0.46
9	CCOc1cc(-c2noc(CCCC(=O)N3CCCC3)n2)cc(Br)c1OC	0.53	1.5
10	CCOC(=O)C1CCCN(C(=O)c2cc3c(=O)n4ccccc4nc3n2C)C1 (stereo unspecified)	-0.57	·
11	COc1ccc(C2C(C(=O)N3CCCC3)CC(=O)N2c2ccc(OC)cc2)cc1 (stereo unspecified)	-0.25	·
12	CS(=O)(=O)c1nc(-c2ccc(F)cc2)cc(C(F)(F)F)n1	-3.7	·
13	O=C(NC1CCCC1)c1[nH]nc2c1CCc1ccccc1-2	·	-0.82
14	Cc1ccc(S(=O)(=O)Nc2ccc(Cl)c(N3CCCS3(=O)=O)c2)cc1C	·	2.2
15	O=C1c2ccccc2-c2onc3c(Br)cc(N4CCOCC4)c1c23	-1.4	-4
16	Cc1ccsc1CCNc1ccc2nnc(-c3ccccc3)n2n1	-1.2	0.28
17	Cc1ccc(-c2c3c(=O)n(C)c(=O)n(C)c3c3n2-c2ccccc2OC3)cc1	-0.8	-0.65
18	Cc1ccc2c(c1)N(CCC(=O)NCCCN1CCOCC1)C(=O)CO2	-0.35	·
19	O=C(c1cc(S(=O)(=O)N2CCCCC2)c[nH]1)N1CCCC2CCCCC21 (stereo unspecified)	·	1.7
20	Cc1ccccc1Nc1sc(C(=O)c2ccccc2)c(N)c1S(C)(=O)=O	-0.38	-1.1
21	O=C(O)CNS(=O)(=O)c1ccccc1	0.07	0.29
22	C(=Nc1ccc2c(c1)OCCOCCOc1cc(N=Cc3ccccc3)ccc1OCCOCCO2)c1ccccc1	2.1	·
23	Cc1c(C(=O)CSc2nc3ncccc3o2)c2ccccc2n1C	·	-1.2
24	O=C(c1cnc2sc(N3CCCCC3)nn2c1=O)N1CCOCC1	·	0.3
25	Cc1nn(-c2ccccc2)c2nc(C(F)(F)F)cc(C3CC3)c12	-1.4	1.7

# Values by screen from the list.
# Compounds 2–12 in CDC25B-CDK2 inh read -0.65, -1.9, ·, ·, ·, -1, -1.9, 0.53, -0.57, -0.25, -3.7

# Whole records from above. Values in the order: CDC25B-CDK2 inh	HIV TAR-Tat
# O=C(c1cnc2sc(N3CCCCC3)nn2c1=O)N1CCOCC1 is entered as ·	0.3
# O=C1c2ccccc2-c2onc3c(Br)cc(N4CCOCC4)c1c23 is entered as -1.4	-4

# (listing goes on)
no.	structure	CDC25B-CDK2 inh	HIV TAR-Tat
26	CC(C)(C)C1CCc2c(sc3nc(-c4ccccc4)cn23)C1 (stereo unspecified)	-0.44	-0.03
27	O=C(O)C1CCCCN1S(=O)(=O)c1ccc2ccccc2c1 (stereo unspecified)	1.3	1.2
28	O=C(c1ccc(Cl)cc1)c1c(O)cc(-c2ccc(Cl)cc2)oc1=O	-0.34	1.1
29	O=C(CN1C(=O)c2ccccc2C1=O)Nc1ccc(F)cc1	-1.4	·
30	CCCCCOC(=O)C1=C(C)NC2=C(C(=O)CC(C)(C)C2)C1c1ccncc1 (stereo unspecified)	-2.2	0.43
31	Cc1c(C(=O)N2CC(C)CC(C)C2)sc2ncnc(N3CCOCC3)c12 (stereo unspecified)	-1.6	·
32	Cc1cccc(CSc2nc3c(c(=O)[nH]2)C(c2cccc(F)c2F)CC(=O)N3)c1 (stereo unspecified)	-0.76	0.8
33	COc1cc2c(c(OC)c1OC)-c1ccc(OC)c(=O)cc1C(NC(C)=O)CC2 (stereo unspecified)	-1.9	·
34	Cn1nnnc1SCCCNCc1cccc(OCc2ccccc2F)c1	-1.3	1.1
35	CSc1nnc(Sc2ncc([N+](=O)[O-])s2)s1	-0.99	·
36	Cc1ccc2occ(C3N[C@H](C(=O)O)CS3)c(=O)c2c1 (stereo partly specified)	0.74	·
37	O=C(NC1CCCC1)c1cc2sccc2n1Cc1ccc(F)cc1	-1.8	-0.12
38	CC(C)CCNC(=O)C1CC(=O)N(CCc2c[nH]c3ccc(Cl)cc23)C1 (stereo unspecified)	2.5	0.85
39	Clc1ccc(OCc2cn3ccccc3n2)cc1	-1.8	2.3
40	CCOC(=O)c1ccc2[nH]c(C)c(C)c2c1	-0.45	1.5
41	Cn1c(=O)[nH]c(=O)c2c1nc(SCCC(=O)O)n2CCc1ccccc1	-1	-0.26
42	Cc1cc(C(=O)N2C=CC(C(F)(F)F)=NCC2)nn1C	-1.3	·
43	NS(=O)(=O)c1ccc(NC(=O)CN2CCc3ccccc32)cc1	-1.1	·
44	CC(CCc1ccco1)Nc1nc(-c2ccccc2F)no1 (stereo unspecified)	·	0.22
45	CCc1cc2c3c([nH]c2cc1S(=O)(=O)NCCOC)CCCC3=O	·	2
46	O=C(O)c1ccc(-n2ncc(Cl)c(Cl)c2=O)cc1	0.18	1.1
47	CCOC(=O)C1=C(C)NC2=C(C(=O)CC(C)(C)C2)C1c1ccc(OC(C)=O)cc1 (stereo unspecified)	-1	0.59
48	Cc1c(C(=O)O)nn(-c2ccc(Cl)cc2)c(=O)c1C#N	0.32	-0.43
49	O=C(CN1C(=O)c2ccccc2S1(=O)=O)NCc1ccc2c(c1)OCO2	0.09	1.8
50	CCN(CC)CCNc1nc(Nc2ccc(C)cc2C)c2cnn(C)c2n1	·	1.1

# Looked up above.
# compound 42 in CDC25B-CDK2 inh reads -1.3
# compound 38 in HIV TAR-Tat reads 0.85
# compound 49 in CDC25B-CDK2 inh reads 0.09

# Four compounds out of the list, sorted by SMILES length, low to high:
no.	structure	CDC25B-CDK2 inh	HIV TAR-Tat
39	Clc1ccc(OCc2cn3ccccc3n2)cc1	-1.8	2.3
42	Cc1cc(C(=O)N2C=CC(C(F)(F)F)=NCC2)nn1C	-1.3	·
28	O=C(c1ccc(Cl)cc1)c1c(O)cc(-c2ccc(Cl)cc2)oc1=O	-0.34	1.1
38	CC(C)CCNC(=O)C1CC(=O)N(CCc2c[nH]c3ccc(Cl)cc23)C1 (stereo unspecified)	2.5	0.85

# New compounds follow.
no.	structure	CDC25B-CDK2 inh	HIV TAR-Tat
51	N#CSc1ccsc1[N+](=O)[O-]	·	0.07
52	CN1C2C=C(N(CCc3c[nH]c4ccccc34)C(=O)c3ccccc3)CC1CC2 (stereo unspecified)	-2.4	-0.1
53	CC(C)S(=O)(=O)c1csc(C(=O)NN)c1-n1cccc1	-2.7	·
54	COc1ccc(Cl)cc1N1C(=O)COCC1=O	-2.1	·
55	CC(CC(=O)Nc1ccccc1)CC1=NS(=O)(=O)c2ccccc2N1 (stereo unspecified)	·	0.24
56	O=C(NNC(=O)c1ccno1)c1cccc(Cl)c1	-1.7	·
57	CCCCN1C(=O)C(O)(CC(=O)c2ccc(Cl)cc2)c2cc(Br)ccc21 (stereo unspecified)	-0.49	·
58	O=C(CSc1c2c(nc3ccc(Cl)cc13)CCCC2)N1CCNC1=O	-0.83	-1.4
59	O=C(CCc1nc(-c2ccncc2)no1)Nc1nccs1	-0.42	1.2
60	CC1CCCN(CC(O)COCc2ccc(Cl)cc2)C1 (stereo unspecified)	0.66	·
61	CCCOc1ccc(C2CC(=O)Nc3c2c(C)nn3-c2ccc3nnc(C)n3n2)cc1OC (stereo unspecified)	·	1.2
62	O=C(c1nsc2ccccc12)N1CCNCC1	-0.38	0.7
63	Cc1nc2nc(C)c(NS(=O)(=O)c3ccc(CC(C)C)cc3)c(=O)n2[nH]1	-1.6	1.3
64	O=C(NCCC1=CCCCC1)C1=Cc2cc(Br)ccc2OC1	·	0.18
65	CN(C)c1ccc(NC(=O)c2ccc(Cn3cc(Cl)cn3)o2)cc1	-5.8	-0.19
66	CCn1cc2c(n1)-c1c(oc(C(=O)Nc3ccc(F)cc3)c1C)CC2	·	1.2
67	Cc1noc(/C=C/N(C)C)c1S(=O)(=O)N(C)CC(=O)NC1CCCCC1	·	1.7
68	CC12CCC(C(=O)N(c3ccc(Br)cc3)C1=O)C2(C)C (stereo unspecified)	-1.3	·
69	O=C(CSc1nc2c(c(=O)[nH]1)CCC2)Nc1ccccc1F	-0.6	-0.01
70	COc1cc(C2NC(=O)NC(C)=C2C(=O)OCc2ccc3c(c2)OCO3)cc(Br)c1O (stereo unspecified)	0.04	·
71	Cc1cc(Cc2cccs2)c(=O)[nH]n1	-2	·
72	CCOc1c(Br)cc(C2CC(=O)Nc3cc4c(cc32)OCO4)cc1OC (stereo unspecified)	-0.73	-0.04
73	OC[C@@H](O)[C@@H](O[C@@H]1O[C@H](CO)[C@@H](O)[C@H](O)[C@H]1O)[C@H](O)[C@@H](O)CO	·	-0.35
74	COc1ccc(NS(=O)(=O)c2ccc(NS(=O)(=O)c3ccc(C)cc3)cc2)nn1	-3	-0.68
75	O=C(CSc1nccn(-c2cccc(F)c2)c1=O)Nc1ccc(F)c(Cl)c1	·	-0.11
76	CCOc1ccc(-c2noc(-c3nnn(-c4ccccc4CC)c3N)n2)cc1	·	0.95
77	COc1ccc(C(=O)C[n+]2ccc3c(c2)nc(-c2cc(OC)c(OC)cc2OC)n3C)cc1	-1	·
78	C/C(=N/NC(N)=O)c1ccc(Sc2ccc(Cl)cc2)c([N+](=O)[O-])c1	-2.4	·
79	CCOC(=O)C1CCCN(C(=O)c2noc3c2CCc2sccc2-3)C1 (stereo unspecified)	·	-0.1
80	COc1ccc(C2CC(=O)Nc3nc(SC)[nH]c(=O)c32)cc1Br (stereo unspecified)	-1.3	2.6
81	CC(C)Cc1cc2c(s1)SCC(=O)N2CC(=O)NCCC(C)N1CCCC1 (stereo unspecified)	·	-1.7
82	O=C(Nc1c(C(c2ccc(Br)cc2)N2CCOCC2)oc2ccccc12)c1cccs1 (stereo unspecified)	-1.1	-0.79
83	Cc1sc2ncn(CC(=O)N3CCOCC3)c(=O)c2c1S(=O)(=O)N1CCOCC1	-1.5	2.3
84	CCOc1ccc(S(=O)(=O)N2CCSC2c2ccc(OC)c(OC)c2)cc1 (stereo unspecified)	-1	0.01
85	CCn1c(SCC(=O)Nc2ccc(F)cc2F)nc2c(c1=O)SCC2	-1.2	1.7
86	COc1ccc(-n2nnc(S(=O)(=O)c3ccc(OC)cc3)c2C)cc1	-1.7	-0.03
87	CN1CCN(C(=O)c2ccc(CS(=O)c3cccc(Cl)c3)o2)CC1 (stereo unspecified)	·	0.4
88	COc1ccc(-c2nc(N3CCCC(C)C3)c3ccccc3n2)cc1 (stereo unspecified)	·	2.6
89	CCOCCCN(Cc1ccco1)C(=O)c1nn(C)c2c1COc1ccccc1-2	-0.21	1.6
90	O=C(Cn1nc(Cc2ccncc2)c2ccccc2c1=O)N(Cc1ccco1)C1CCCCC1	-0.92	1.3
91	Cc1ccc(-c2csc3ncn(Cc4cccnc4)c(=O)c23)cc1	-1.7	1.9
92	CCOC(=O)C1CCN(C(=O)C2=Cc3sc4c(c3CS2)CCCC4)CC1	·	2.3
93	CNc1nc(C(N)=O)c(NC(=O)C2=Cc3ccccc3OC2)s1	·	0.43
94	N#CC(C#N)=Cc1ccc(Oc2ccccc2)nc1	-1.8	·
95	CCc1cc2c(N3CCC(C(=O)NC(C)CC)CC3)ncnc2s1 (stereo unspecified)	·	0.36
96	Cc1ccc(S(=O)(=O)N2CC3(C)CN(S(=O)(=O)c4ccc(C)cc4)CC(C)(C2)C3O)cc1 (stereo unspecified)	0.97	0.93
97	Cn1c(=O)c2c(-c3ccccc3F)n3c(c2n(C)c1=O)C(c1ccc(O)c(O)c1)Nc1ccccc1-3 (stereo unspecified)	-1.5	1.4
98	CCCOc1ccc(C2c3c(oc4ccccc4c3=O)C(=O)N2c2nnc(C)s2)cc1 (stereo unspecified)	-0.87	-0.99
99	CC12CN3CC(c4ccccc4)(CN(C1)C3c1ccc(F)cc1)C2=O (stereo unspecified)	-1.4	0.94
100	CCOC(=O)N1CCC(n2c(SCc3ccc(F)cc3Cl)nc3ccsc3c2=O)CC1	·	2.9

# Further structures
no.	structure	CDC25B-CDK2 inh	HIV TAR-Tat
101	Cc1cc(NC(=O)C(C)Oc2ccccc2)no1 (stereo unspecified)	-1.6	·
102	Cc1sc2c(c1C)CSC(C(=O)Nc1ccc3c(c1)OCO3)=C2	·	0.42
103	Cc1cc(NC(=O)C2=Cc3sc(C)c(C)c3CS2)ccc1Br	·	-4.2
104	CCCCNc1nc(Nc2ccc(C)c(C)c2)c2cnn(C)c2n1	·	0.36
105	O=C(c1cc(-c2ccc(Br)cc2)n[nH]1)N1CCc2ccccc21	·	-0.19
106	O=C(c1cccn2c(=O)c3cc4ccccc4cc3nc12)N1CCN(Cc2ccc3c(c2)OCO3)CC1	·	-1.8
107	O=S(=O)(NCc1ccc(Cl)cc1)c1ccc(N2CCCCS2(=O)=O)cc1	·	0.2
108	COc1ccc(-c2nnc(-c3ccncc3)o2)cc1	-1.1	-0.2
109	C=CCN1C(=O)C(O)(CC(=O)c2ccc(-c3ccccc3)cc2)c2ccccc21 (stereo unspecified)	-1.1	-0.18
110	Cc1ccc(-c2nc(-c3ccc(C)s3)no2)cc1	·	1.8
111	CC1CC(C)CN(CC(O)Cn2c3ccccc3c3ccccc32)C1 (stereo unspecified)	-2.1	·
112	CCN(CC)CCCNC(=O)C1=C(C)C(=O)OC12CCN(S(=O)(=O)CC)CC2	·	0.73
113	COC(=O)c1sccc1N/N=C(\C#N)S(C)(=O)=O	0.53	·
114	CCN(CCCNc1ncnc2onc(-c3ccccc3C)c12)Cc1ccccc1	·	0.25
115	O=c1[nH]c2ccccc2s1	-1.9	·
116	Cc1cccc2cc3c(nc12)N(S(=O)(=O)c1ccc(Cl)cc1)CC3	-1.2	-2
